Source: PubChem
MbtI inh: blocks the Mycobacterium tuberculosis siderophore enzyme MbtI; P9WFX0; inhibition, %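 (about 17 µg/mL by stock and volumes)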; purified MbtI enzyme, fluorescence intensity read-out; 100,000 compounds, 0.89% hits;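 active = above 50% in both replicates, above 80% if mildly self-fluorescent; inactive = the rest, strongly fluorescent compounds included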;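 note: 0% = mean of negative and 100% = mean of positive controls; one replicate is shown; some compounds called inactive have numbers as strong as hits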
Target sequence (P9WFX0 whole entry, looked up): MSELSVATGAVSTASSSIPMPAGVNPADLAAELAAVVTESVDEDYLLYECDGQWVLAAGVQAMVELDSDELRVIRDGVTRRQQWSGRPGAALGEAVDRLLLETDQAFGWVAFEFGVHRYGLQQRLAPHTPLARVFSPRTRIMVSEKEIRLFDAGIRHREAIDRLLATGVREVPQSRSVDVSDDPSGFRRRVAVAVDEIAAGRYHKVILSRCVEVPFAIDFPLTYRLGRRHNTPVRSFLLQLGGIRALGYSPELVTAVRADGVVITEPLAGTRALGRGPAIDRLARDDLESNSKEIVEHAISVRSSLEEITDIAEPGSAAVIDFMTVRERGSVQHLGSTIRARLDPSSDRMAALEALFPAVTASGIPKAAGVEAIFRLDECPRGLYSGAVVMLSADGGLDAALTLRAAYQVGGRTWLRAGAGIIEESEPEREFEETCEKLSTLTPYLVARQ
MenB inh: Mtb MenB enzyme inhibition; P9WNP5; MenB enzyme assay, absorbance read-out; some hits fall short of the stated cut; inhibition, %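 (about 12 µg/mL by stock and volumes)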; 100,000 compounds, 0.43% hits; AID 540299;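 active = mean of two replicates above 30%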;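 note: 0% = no compound and 100% = wells with inactive enzyme; the first replicate is given; strong numbers were not always called active; inactives centre near -10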
PV pol inh: inhibitors of poliovirus RNA polymerase binding and polymerization; P03300; % elongation, % (compound at 16.7 µg/mL); 150,000 compounds, 0.66% hits; poliovirus polymerase elongation, fluorescence polarization; stronger effect = lower value; in the data active = % elongation below about 90%; note: some results filed as inactive read as strong as hits
Target sequence (P03300 1749-2209 limits assumed): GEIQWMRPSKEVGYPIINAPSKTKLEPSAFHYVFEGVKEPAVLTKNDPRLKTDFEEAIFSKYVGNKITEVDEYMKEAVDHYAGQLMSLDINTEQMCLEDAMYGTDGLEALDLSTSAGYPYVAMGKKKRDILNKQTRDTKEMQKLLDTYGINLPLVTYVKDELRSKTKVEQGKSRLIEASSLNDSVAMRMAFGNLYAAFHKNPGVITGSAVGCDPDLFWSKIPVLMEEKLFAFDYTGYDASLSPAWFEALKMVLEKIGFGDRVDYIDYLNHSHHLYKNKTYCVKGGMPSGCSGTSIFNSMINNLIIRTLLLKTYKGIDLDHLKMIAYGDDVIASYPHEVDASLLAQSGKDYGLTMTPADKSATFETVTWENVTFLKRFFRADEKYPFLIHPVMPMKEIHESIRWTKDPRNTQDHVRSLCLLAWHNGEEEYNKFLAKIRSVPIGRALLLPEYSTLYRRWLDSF
PV pol inh intensity: recorded beside PV pol inh, whose call it bears; % elongation; measured here: total intensity read-out; formula for this scale not given here;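 total fluorescence in place of polarization; lower means less elongation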
* marks the source's active call; other numbers are inactive results; · = not tested or not shown; & = joins results of further samples.

Values in the order – MbtI inh	MenB inh	PV pol inh	PV pol inh intensity
> COc1cc2nc(NC(=O)c3ccc(Cl)cc3)[nH]c(=O)c2cc1OC
  ·	6	98	94
> OCCNCc1[nH]c2ccccc2c1Cl
  11	23	100	102
> O=C(Nc1ccc2c(c1)OCCO2)c1ccccc1CSc1nc2ccccc2o1
  15	-17	104	99
> CCCCCCCCCCCCC/C=C/[C@@H](O)[C@H](CO)NCCCCCCCC
  -4	10	100&101	100&99
> COc1ccccc1COCC(O)CN1CCC(=O)CC1 (stereo not given)
  10	-23	104	106
> CC(NC(=O)c1ccco1)C(=O)OCc1cccc(C(F)(F)F)c1 (stereo not given)
  4	10	103	105
> O=C(NC(=O)C(F)(F)F)NC1CCCC1
  3	-27	101	100
> C=CCOC(=O)Nc1ccc(C(O)(C(=O)OCC)C(F)(F)F)cc1C (stereo not given)
  -4	8	102	105
> O=C(NC(=Nc1ccccc1)N1CCOCC1)Nc1ccccc1
  4	-8	108	108
> COc1cccc(CNC(=O)c2cnc(SC)nc2C)c1
  -14	-4	103	110
> CCOC(=O)c1cc2ccc(O)cc2oc1=O
  -11	-361	100	103
> c1ccc2c(c1)CNc1ccccc1C2
  -1	-14	101	98
> CCOC(=O)/C=c1\s/c(=C\c2ccsc2)c(=O)n1CC(=O)c1cc(C)n(Cc2ccco2)c1C
  -5	-27	117	117
> CCOC(=O)N1CCN(C(=O)COC(=O)c2ccc(=O)n(Cc3ccccc3)n2)CC1
  -8	-33	99	94
> CC(C)CCSc1nc2ccccc2n1CC(N)=O
  -3	-30	105	110

Values in the order – MbtI inh	MenB inh	PV pol inh	PV pol inh intensity
> O=C(CSc1nncn1-c1ccccc1)Nc1ccccc1
  -21	-40	104	103
> CNC(=O)CN(c1cccc(C)c1C)S(=O)(=O)c1ccccc1
  -11	-6	102	100
> CCOC(=O)COc1ccc(S(=O)(=O)N2CCN(Cc3ccc4c(c3)OCO4)CC2)cc1
  2	-10	101	100
> COc1nc2c(C)cccc2cc1-c1noc(-c2ccc(C)cc2)n1
  -4	-37	103	108
> O=C(Cn1c(C(F)(F)F)nc2ccccc21)NCc1ccco1
  -7	-12	105	104
> CN1C(=O)c2ccc(NC(=S)NC(=O)C(C)(C)C)cc2C1=O
  5	-30	102	101
> CCCN(CC1CC1)c1oc(-c2ccc(F)cc2)nc1C#N
  -90	-18	107	103
> N#CC1=C(N2CCOCC2)c2cc3c(n2C1=N)CCCC3
  ·	-38	62	241
> COC(=O)C1C(=O)C(C(=O)c2ccccc2)C(=O)CC1(C)C (stereo not given)
  -4	9	99	102
> CCc1nn(C(C)C(=O)N2CCC3(CC2)OCCO3)c(=O)c2cc3occc3n12 (stereo not given)
  12	-23	100	101
> COCCn1nnnc1C(C(C)C)N1CCN(C(=O)c2ccco2)CC1 (stereo not given)
  -2	-12	99	101
> Cc1nn(-c2ccccc2)c2c1C(c1ccc(-c3ccc(S(=O)(=O)N4CCOCC4)cc3)o1)C1=C(CC(C)(C)CC1=O)N2 (stereo not given)
  -179	-39	105	107
> CC1Cc2ccccc2N1C(=O)CSc1nc2scc(-c3ccco3)c2c(=O)n1-c1ccccc1 (stereo not given)
  0	-26	105	106
> Cc1cc(=S)cc(C)n1C
  12	-11	101	102
> Cc1sc2ncnc(Cl)c2c1C
  0	-19	105	95

Complete entries, quoted from the list:
O=C(CSc1nncn1-c1ccccc1)Nc1ccccc1 is entered as MbtI inh = -21; MenB inh = -40; PV pol inh = 104; PV pol inh intensity = 103
N#CC1=C(N2CCOCC2)c2cc3c(n2C1=N)CCCC3 is entered as MbtI inh = ·; MenB inh = -38; PV pol inh = 62; PV pol inh intensity = 241
CCc1nn(C(C)C(=O)N2CCC3(CC2)OCCO3)c(=O)c2cc3occc3n12 (stereo not given) is entered as MbtI inh = 12; MenB inh = -23; PV pol inh = 100; PV pol inh intensity = 101

An excerpt from above in order of heavy-atom count, smallest number first.
Values in the order – MbtI inh	MenB inh	PV pol inh	PV pol inh intensity
> Cc1cc(=S)cc(C)n1C
  12	-11	101	102
> Cc1sc2ncnc(Cl)c2c1C
  0	-19	105	95
> O=C(NC(=O)C(F)(F)F)NC1CCCC1
  3	-27	101	100
> CCOC(=O)c1cc2ccc(O)cc2oc1=O
  -11	-361	100	103
> CC(C)CCSc1nc2ccccc2n1CC(N)=O
  -3	-30	105	110
> N#CC1=C(N2CCOCC2)c2cc3c(n2C1=N)CCCC3
  ·	-38	62	241
> CN1C(=O)c2ccc(NC(=S)NC(=O)C(C)(C)C)cc2C1=O
  5	-30	102	101
> O=C(Cn1c(C(F)(F)F)nc2ccccc21)NCc1ccco1
  -7	-12	105	104
> O=C(NC(=Nc1ccccc1)N1CCOCC1)Nc1ccccc1
  4	-8	108	108
> C=CCOC(=O)Nc1ccc(C(O)(C(=O)OCC)C(F)(F)F)cc1C (stereo not given)
  -4	8	102	105
> COCCn1nnnc1C(C(C)C)N1CCN(C(=O)c2ccco2)CC1 (stereo not given)
  -2	-12	99	101
> CCc1nn(C(C)C(=O)N2CCC3(CC2)OCCO3)c(=O)c2cc3occc3n12 (stereo not given)
  12	-23	100	101
> CCOC(=O)N1CCN(C(=O)COC(=O)c2ccc(=O)n(Cc3ccccc3)n2)CC1
  -8	-33	99	94
> CCOC(=O)COc1ccc(S(=O)(=O)N2CCN(Cc3ccc4c(c3)OCO4)CC2)cc1
  2	-10	101	100
> CCOC(=O)/C=c1\s/c(=C\c2ccsc2)c(=O)n1CC(=O)c1cc(C)n(Cc2ccco2)c1C
  -5	-27	117	117
> CC1Cc2ccccc2N1C(=O)CSc1nc2scc(-c3ccco3)c2c(=O)n1-c1ccccc1 (stereo not given)
  0	-26	105	106
> Cc1nn(-c2ccccc2)c2c1C(c1ccc(-c3ccc(S(=O)(=O)N4CCOCC4)cc3)o1)C1=C(CC(C)(C)CC1=O)N2 (stereo not given)
  -179	-39	105	107

Further records:
Values in the order – MbtI inh	MenB inh	PV pol inh	PV pol inh intensity
> Cc1ccc2nc(NCc3ccccc3)[nH]c2c1
  -11	4	102	103
> O=C(CN(Cc1ccccc1Cl)C(=O)c1ccc(CN2CCOCC2)o1)NCc1ccccc1
  5	27	100	102
> Cc1ccc(NC(=O)CCSC2=NCCS2)cc1
  2	-29	102	102
> CCOc1ccccc1NC(=O)NCCN1CCCc2ccccc21
  13	19	98	104
> CC(C)NC(=O)CSc1nnc(-c2cccnc2)o1
  39	7	·	·
> O=C(OCc1ncc(-c2ccccc2)o1)c1ccccc1C(=O)c1ccc2c(c1)OCCO2
  22	-27	105	100
> CCOC(=O)CC1C(=O)NCCN1C(=O)OC(C)(C)C (stereo not given)
  -5	-26	105	102
> CN1CCc2nc3sc(C(=O)C(C)(C)C)c(N)c3cc2C1
  ·	-31	128	211
> COC(=O)c1csc(N)n1
  41	-20	103	100
> Cc1nc(C23CC4CC(CC(C4)C2)C3)[nH]c(=O)c1Cl
  -17	8	110	115
> Cc1cc2ncn(C(=O)c3c(-c4ccccc4Cl)noc3C)c2cc1C
  0	1	101	105
> CCCCC(C(=O)Nc1ccccc1)N1C(=O)c2ccccc2C1=O (stereo not given)
  3	-18	104	106
> Cc1[nH]nc2nc(SCC(=O)NC3CCCCC3)n(-c3ccc(Br)cc3)c(=N)c12
  -27	-17	101	102
> Cn1c(NNC(=O)c2ccccc2)cc(=O)n(C)c1=O
  4	-30	104	107
> CCCn1c(C)cc(C(=O)COC(=O)C2COc3ccccc3O2)c1C (stereo not given)
  -17	-31	106	108

Values in the order – MbtI inh	MenB inh	PV pol inh	PV pol inh intensity
> S=c1[nH]c(-c2ccccc2)c(-c2ccccc2)[nH]1
  101	-19	106	109
> CNc1ccccc1C(C)(C)c1cc(-c2cccc(OC)c2)no1
  14	-5	103	107
> O=C(O)CCCN1C(=O)/C(=C/c2c(N3CCN(Cc4ccccc4)CC3)nc3ccccn3c2=O)SC1=S
  13	-19	104	137
> O=C(NCCN1CCN(c2cccc(Cl)c2)CC1)c1ccc(CS(=O)(=O)c2cccc(C(F)(F)F)c2)o1
  4	-18	99	101
> Cc1ccccc1NC(=O)COc1coc(CN2CCN(Cc3ccccc3)CC2)cc1=O
  15	-17	102	109
> CSc1nc2scc(-c3cccs3)c2c(=O)n1CC(C)C
  8	-2	99	106
> O=C(O)C(Cc1ccccc1)C(=O)O
  -4	-18	104	105
> O=C(NCCN1CCCCC1)Nc1cccc2ccccc12
  ·	-1	99	96
> CCO/C=C1\C(=O)C(C)(C)Oc2ccc3ccc(=O)oc3c21
  115	4	100	108
> O=C(O)c1cc(C(=O)O)n(Cc2ccccc2Cl)n1
  -15	-7	101	101
> O=C(NC1CCCCC1)c1snc2ccc(Cl)cc12
  -4	·	99	96
> O=C(CCNc1n[nH]c(=O)[nH]c1=O)N/N=C/c1ccccn1
  12	0	102	102
> Cc1cc(=O)oc2cc(OCC(=O)OCc3nnc(-c4ccccc4)o3)ccc12
  104	15	99	108
> CCCCn1c(O)c(Nc2ccc3c(c2)=NC(=O)N=3)c2ccccc21
  -2	-9	102	99
> Cc1cc(-n2cnc(-c3cnoc3C)n2)no1
  -8	-5	106	110

Values in the order – MbtI inh	MenB inh	PV pol inh	PV pol inh intensity
> O=C(CSc1cccc[n+]1[O-])Nc1ccccc1OC(F)F
  -6	7	103	104
> O=C1CC(C(=O)N(Cc2ccco2)Cc2cccs2)CN1Cc1ccccc1 (stereo not given)
  2	-5	108	118
> Clc1ccc(N=Cc2c[nH]c3ccccc23)cc1Cl
  ·	6	104	102
> COc1c(N)cc(Oc2cccc(C(F)(F)F)c2)c2nc(C)cc(C)c12
  ·	-20	114	126
> O=C(NCCCN1CCC(Cc2ccccc2)CC1)c1nnc(Cc2ccc3c(c2)OCO3)o1
  -9	2	105	102
> COc1ccc(-c2cc(CCCC(=O)NCCc3cccs3)no2)cc1
  8	9	98	97
> N#COc1ccc(Oc2ccc(OC#N)cc2)cc1
  3	-51	103	106
> COc1ccc(CC(=O)Nc2nccs2)cc1S(=O)(=O)N1CCOCC1
  -11	-19	106	108
> CC(=O)NC1=NC(=O)/C(=C/c2ccccc2)S1
  37	-40	102	104
> CCOC(=O)C1CCN(C(=O)COC(=O)c2ccccc2OCC)CC1
  31	-5	101	108
> O=C(/C=C/c1cccs1)NCC1CCN(C(=O)/C=C/c2cccs2)CC1
  18	-20	100	99
> Cc1ccc2c(c1)-c1onc(C(=O)N(Cc3ccco3)CC3CCCO3)c1CO2 (stereo not given)
  -16	-19	104	102
> CCOc1ccc(NC(=O)CC2C(=O)N(C)C(=S)N2CCc2ccccc2)cc1 (stereo not given)
  -6	-12	103	108
> CCOC(=O)/C(C#N)=C/c1cn(Cc2ccccc2)c2ccccc12
  16	10	103	104
> CCn1c(=O)cc(OCC(=O)NCCCN2CCOCC2)c2ccccc21
  1	-61	102	105

Values in the order – MbtI inh	MenB inh	PV pol inh	PV pol inh intensity
> CCN(CCCNc1nc(=S)[nH]c2ccccc12)c1ccccc1
  7	-29	101	102
> COc1cc(C(c2nnnn2Cc2ccco2)N2CCN(C3CCCC3)CC2)cc(OC)c1OC (stereo not given)
  -3	5	100	101
> O=C(O)CCC1CCC(=O)N1 (stereo not given)
  -11	-4	99	102
> O=C(O)c1ccccc1C(=O)Nc1nccs1
  5	-24	99	100
> c1ccc2c(c1)nc1n2CN(C2CCCCC2)CN1
  -2	-3	103	106
> O=S(=O)(c1ccc2c(c1)OCCO2)N1CCN(c2ccnc3cc(Cl)ccc23)CC1
  136	-8	103	106
> O=C(O)C(Cc1c[nH]c2ccccc12)Nc1ncnc2c1oc1ccccc12 (stereo not given)
  8	-49	104	108
> CCC1=CC(C)(CC)Nc2cc(C)ccc21 (stereo not given)
  ·	-16	116	118
> O=C(C1=CC2Cc3ccccc3C2C=C1)c1cccc(Br)c1 (stereo not given)
  ·	-15	107	106
> O=C(NN=C(c1ccccc1)c1ccccc1)c1ccco1
  11	-34	104	101
> COc1ccc(-c2csc(/C(C#N)=C(\O)CSc3nccn3C)n2)cc1OC
  10	6	107	106
> CC(C)(C)/C(N)=N/S(=O)(=O)c1cc(C(F)(F)F)cc(C(F)(F)F)c1
  -5	-2	101	98
> NNc1ncnc2ccccc12
  6	-44	106	109
> NCCSc1nnc2c(n1)[nH]c1ccccc12
  -20	-72	98	103
> CC(Oc1ccccc1)c1nn2c(-c3cccnc3)nnc2s1 (stereo not given)
  -5	-65	103	102

Values in the order – MbtI inh	MenB inh	PV pol inh	PV pol inh intensity
> N#CC(=C1C(=O)c2ccccc2C1=O)c1nc2ccccc2[nH]1
  ·	5	80*	88*
> O=C(Cn1c(CO)nc2ccccc21)NCC(F)(F)F
  2	3	101	100
> O=S1(=O)CCC(NC(=S)Nc2ccccn2)C1 (stereo not given)
  12	-35	105	103
> Cc1ccc(CC(C(=O)O)C(C)C(=O)Nc2ccc(F)cc2)cc1 (stereo not given)
  4	-7	101	96
> NC(=O)c1cc2c([nH]c1=O)CCCCCCCCCC2
  34	5	100	101
> CC(C)C(=O)Nc1ccccc1C(=O)O
  -14	-7	98	103
> O=C(NCc1ccccn1)c1ccc2c(c1)CCN2S(=O)(=O)c1ccc(Cl)cc1
  1	11	100	102
> CC(=O)NCCCc1[nH]n(-c2ccccc2)c(=O)c1NC(=O)c1ccccc1
  21	10	87*	90*
> C=CCn1c(=O)c2ccccc2n2c(SCc3c(C(=O)OC)sc(N)c3C(=O)OC)nnc12
  -10	-6	107	110
> Cn1c(=O)oc2cc(S(=O)(=O)N3CC=C(c4ccccc4)CC3)ccc21
  -2	-3	101	107
> O=S(=O)(NCc1ccc(Cl)cc1Cl)c1ccc(N2CCOCC2)nc1
  -17	-13	103	105
